Source: PubChem BioAssay
TRPML1 blocker: human mucolipin-1 channel inhibition. TRPML1-inducible cells, Ca2+ dye fluorescence, FDSS; hits give low values; inhibition of EC80 agonist-evoked calcium signal. 0.02% of 390,000 active. activity change, negative = inhibition, % (concentration not given with the values); in the data active means activity change below about -50%; inconclusive means about -30% to -50%; inactive means above about -30%;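 also: stimulus is agonist 54-4 at its EC80 concentration; % is scaled to controls: 0 for no effect and ±100 for the full control effect; compound concentration not given in the record; the text of the record puts the active cut at -80%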
Target sequence (Q9GZU1 whole entry, looked up): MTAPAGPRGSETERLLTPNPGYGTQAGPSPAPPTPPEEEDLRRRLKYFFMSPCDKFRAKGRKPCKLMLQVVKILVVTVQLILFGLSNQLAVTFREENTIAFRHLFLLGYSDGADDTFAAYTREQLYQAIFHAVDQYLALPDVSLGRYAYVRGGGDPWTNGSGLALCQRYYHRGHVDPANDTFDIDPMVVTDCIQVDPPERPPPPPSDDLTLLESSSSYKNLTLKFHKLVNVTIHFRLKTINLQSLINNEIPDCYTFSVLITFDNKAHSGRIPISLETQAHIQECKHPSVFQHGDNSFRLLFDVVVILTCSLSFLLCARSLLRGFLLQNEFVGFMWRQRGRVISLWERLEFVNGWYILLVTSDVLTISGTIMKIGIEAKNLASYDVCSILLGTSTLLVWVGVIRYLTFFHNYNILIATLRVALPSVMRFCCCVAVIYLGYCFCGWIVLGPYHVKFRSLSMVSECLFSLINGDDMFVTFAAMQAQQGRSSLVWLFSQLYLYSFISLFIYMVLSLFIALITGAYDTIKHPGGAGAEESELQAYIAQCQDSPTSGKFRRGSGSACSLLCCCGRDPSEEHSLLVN
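Calcium fluorescence in TRPML1-DL cells induced overnight with Tet: a 110 s read after compound pin addition, then a 110 s antagonist read after challenge with 54-4 at 4 uM final (EC80).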
ClpP mod: qHTS Assay for Activators of ClpP; AID 651965, 2013; Potency, µM (series often up to 57.5 µM), for the others: at the top dose activity change, negative = active; purified B. subtilis ClpP, FRET peptide cleavage, 20 min; 1.9% of 340,000 active; active = well fitted falling curve with a large enough effect; inconclusive = small, poorly fitted or top-dose-only effect; inactive = no such curve, though single readings can be large or run the other way; also: potency is read from the fitted curve at half-maximal effect; the source files actives as falling curves though it sought activators and does not explain the sign; nearly all actives have a fitted effect of over 65% in size; many hits overshoot -100%
Target sequence (P80244 whole entry, looked up): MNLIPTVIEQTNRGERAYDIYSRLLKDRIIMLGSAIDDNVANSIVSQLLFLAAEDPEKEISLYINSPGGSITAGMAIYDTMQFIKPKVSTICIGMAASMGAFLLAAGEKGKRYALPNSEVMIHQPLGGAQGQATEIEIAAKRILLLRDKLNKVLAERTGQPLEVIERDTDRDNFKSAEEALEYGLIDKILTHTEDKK
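Buffer: 100 mM Tris/HCl pH8, 100 mM KCl, 0.05% low protease BSA, 2.5% glycerol, 0.01% Tween-20. ClpP 10 microg/mL final; 20 min RT; delta FRET normalized to ADEP and DMSO controls.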
gsp antagonist: antagonizes gsp, the McCune-Albright syndrome mutation; Potency, µM (series often up to 76.9 µM), for inactives: at the highest dose activity change, negative = inhibition, actives largely listed as inhibitors; 0.4% of 340,000 active; gsp-mutant cells, cAMP HTRF, 30 min; control for the full effect not named in the record; active = falling curve of any shape with a large fitted effect; inconclusive = falling curve, mostly with a smaller effect; inactive = flat or rising curve; cell line not stated here;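 also: intracellular cAMP measured with PDE inhibitor Ro 20-1724 present during compound exposure; potency is read from the fitted curve at half-maximal effect; % is scaled to controls: 0 for no effect and ±100 for the full control effect; nearly all actives have a fitted effect of over 65% in size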
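HTRF cAMP read-out (cAMP-d2 plus anti-cAMP antibody-K in lysis buffer, 30 min RT). Before lysis, cells are exposed to compounds with […] for 30 min at 37C in DPBS containing Ca/Mg, BSA and Tween 20.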
gsp agonist: activates gsp, the McCune-Albright syndrome mutation. gsp mutant cells, cAMP HTRF, 30 min; control for the full effect not named in the record. 0.13% of 340,000 active. AID 624287. Potency, µM (series often up to 76.9 µM), for the others: at the highest dose activation (cAMP increase), most hits filed as activators; active = well fitted activation curve with a large enough effect; inconclusive = small, poorly fitted or top-dose-only effect, or another doubt; inactive = no such curve, though single readings can be large or run the other way; cell line not stated here;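 also: phosphodiesterase inhibitor Ro 20-1724 added with compounds to block cAMP breakdown; potency is read from the fitted curve at half-maximal effect; nearly all actives have a fitted effect of over 60% in size; about a fifth of the inactives were tested at one dose only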
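Cells in DMEM/10% FBS with G418 were pretreated with compounds in DMSO plus […] (300 uM stock) for 30 min at 37C. cAMP was measured by HTRF (cAMP-d2 plus anti-cAMP antibody-K) after 30 min at room temperature.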
Menin-MLL FL inh: displaces fluorescein MLL peptide from human menin | AID 1766 | Fluorescence polarization, fluorescein-MLL peptide displacement from menin | FP activity change, % at 61.4 µM | 290,000 tested, under 10 active; inconclusive = falling polarisation curve, or a change in total fluorescence; inactive = total fluorescence flat and polarisation flat or rising; no compound was filed as active; the % refers to the polarisation; negative = inhibition;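 also: % of control where 0% means no effect; inhibitors lower the polarisation; unlabelled MLL peptide was the positive control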
TRPML1 ag: activates the human TRPML1 channel; TRPML1-expressing cells, Ca2+ dye fluorescence, FDSS; host cell line not named in the record; reference of the full effect not given here; AID 624414; Q9GZU1; activation, % (test concentration not listed); 0.12% of 410,000 active; in the data active = activation above about 50%; inconclusive = about 30% to 50%; inactive = below about 30%; also: 0% is about no effect; the text of the record puts the active cut at 80%
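Agonist activity was taken from a 110 s kinetic Ca2+ dye read on the FDSS after pinning compounds onto TRPML1-DL cells. The cells were seeded at 1,500/well with Tet inducer, incubated about 16 h, then dye-loaded at room temperature.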
Starred values were filed as active, the others as inactive; [ ] = remark or other dose.

How did COc1cc(C2NC(=S)NC3=C2C(=O)CCC3)ccc1O (stereo unspecified) do in these assays?
TRPML1 blocker: 1.1; gsp antagonist: 0.4%; gsp agonist: 15.7%; Menin-MLL FL inh: 1.1; TRPML1 ag: -0.2

What do the screens show for `O=C(Nc1ccc(F)cc1)OCCOc1ccc([N+](=O)[O-])cc1`?
TRPML1 blocker: -17.4; ClpP mod: 3.1%; gsp antagonist: 10.7%; gsp agonist: -40.4%[inhibitor]; Menin-MLL FL inh: -14.1; TRPML1 ag: 2.3

Results for CC(NC(=O)Nc1ccc2c(c1)OCO2)C1CCCO1 (stereo unspecified) ?
TRPML1 blocker: 54.0; ClpP mod: -0.9%; gsp antagonist: 2.7%; gsp agonist: -44.7%[inhibitor]; Menin-MLL FL inh: 0.3; TRPML1 ag: 1.1

How did CNS(=O)(=O)c1ccc(NC(=O)c2nc3nc(C)cc(C(F)F)n3n2)cc1 do in these assays?
TRPML1 blocker: -0.5; ClpP mod: -3.5%; Menin-MLL FL inh: 1.4; TRPML1 ag: 0.6

How did CC(=O)Nc1ccc(S(=O)(=O)NC2=C(N3CCN(c4ccc(F)cc4)CC3)C(=O)c3ccccc3C2=O)cc1 do in these assays?
TRPML1 blocker: -0.3; ClpP mod: -1.8%; gsp antagonist: -19.7%; gsp agonist: -2.5%[15.4 µM]; Menin-MLL FL inh: 0.8; TRPML1 ag: -0.4

What do the screens show for `O=c1c(-c2ccccc2)c(O)nc2ccccn12`?
TRPML1 blocker: -9.1; ClpP mod: -12.9%; gsp antagonist: 7.9%; gsp agonist: -1.2%; Menin-MLL FL inh: 3.2; TRPML1 ag: -0.1

How did O=C(NC(O)C(=O)c1cccs1)c1cccnc1 (stereo unspecified) do in these assays?
TRPML1 blocker: 36.9; ClpP mod: 0.9%; gsp antagonist: 13.7%; gsp agonist: -11.0%; Menin-MLL FL inh: 0.1; TRPML1 ag: -0.3

How did Cc1cc(C)n2nc(C(=O)OCC(=O)Nc3ccc(C)c(S(=O)(=O)N4CCOCC4)c3)nc2n1 do in these assays?
TRPML1 blocker: -10.6; ClpP mod: -1.6%; gsp antagonist: 2.3%; gsp agonist: -5.5%[15.4 µM]; TRPML1 ag: 0.6

What do the screens show for `CCOC(=O)N1CCC(NC(=O)c2cccc3c2C(=O)N(Cc2cccnc2)C3)CC1`?
TRPML1 blocker: -1.0; ClpP mod: 0.8%; gsp antagonist: -15.0%; gsp agonist: 1.8%; Menin-MLL FL inh: -0.1; TRPML1 ag: 0.1

What do the screens show for `CC(C)(C)N1CC(COc2ccccc2)OC1=O` (stereo unspecified)?
TRPML1 blocker: 1.1; ClpP mod: 0.5%; gsp antagonist: -2.6%; gsp agonist: -1.1%; Menin-MLL FL inh: 2.8; TRPML1 ag: -0.6

Results for O=C(CC1CCCC1)Nc1nc2ccccc2[nH]1 ?
TRPML1 blocker: -14.0; ClpP mod: inconclusive; gsp antagonist: 2.8%; gsp agonist: -26.2%; Menin-MLL FL inh: -1.1; TRPML1 ag: -0.4

Results for O=C(CN1CCN(S(=O)(=O)N2CCOCC2)CC1)Nc1ccc(Cl)c(Cl)c1 ?
TRPML1 blocker: 32.5; ClpP mod: -1.2%; gsp antagonist: -3.0%; gsp agonist: 12.4%[15.4 µM]; Menin-MLL FL inh: -1.2; TRPML1 ag: 0.5

What do the screens show for `Cc1nn(CC2CCCCC2)c(N)c1-c1ccccc1`?
TRPML1 blocker: 0.2; ClpP mod: 0.4%; gsp antagonist: 0.6%; gsp agonist: -20.1%; Menin-MLL FL inh: -1.3; TRPML1 ag: -0.4

How did Cc1cccc2cc(-c3nc(-c4cccs4)no3)c(=O)oc12 do in these assays?
TRPML1 blocker: 5.2; ClpP mod: -13.9%; TRPML1 ag: 0.2

Results for COCCNC(=O)c1cc(S(=O)(=O)N(C)C2CCCCC2)ccc1Cl ?
TRPML1 blocker: -4.5; ClpP mod: -0.1%; gsp agonist: -45.0%[inhibitor]; TRPML1 ag: -0.5

How did CCc1cccc(CC)c1NC(=S)N(CCN(C)C)C(C)c1cccnc1 (stereo unspecified) do in these assays?
TRPML1 blocker: -12.9; ClpP mod: -2.5%; gsp antagonist: 2.7%; gsp agonist: -11.7%[15.4 µM]; Menin-MLL FL inh: 0.6; TRPML1 ag: -0.1

Results for CC(Sc1cccc[n+]1[O-])c1ccccc1 (stereo unspecified) ?
TRPML1 blocker: 10.3; ClpP mod: -7.8%; gsp antagonist: 8.6%; gsp agonist: 15.5%[15.4 µM]; Menin-MLL FL inh: 0.8; TRPML1 ag: -0.7

How did O=S(=O)(c1ccc(F)cc1)N1CCC(N2CCCCCC2)CC1 do in these assays?
TRPML1 blocker: -6.5; ClpP mod: -2.5%; gsp antagonist: 10.3%; gsp agonist: -37.0%[inhibitor]; Menin-MLL FL inh: -2.2; TRPML1 ag: 0.2

What do the screens show for `CCOc1ccc(NC(=O)N2CC(C)OC(C)C2)cc1` (stereo unspecified)?
TRPML1 blocker: 1.9; gsp antagonist: 10.9%; gsp agonist: -0.7%[15.4 µM]; Menin-MLL FL inh: 3.9; TRPML1 ag: -0.7

What do the screens show for `COc1cccc(C(=O)N2CCN(CCCc3ccccc3)CC2)c1OC`?
TRPML1 blocker: 5.4; ClpP mod: -0.6%; gsp antagonist: -20.5%; gsp agonist: -32.9%[inhibitor]; Menin-MLL FL inh: -2.4; TRPML1 ag: 2.0

What do the screens show for `CN1CCN(C(=O)c2ccc3c(c2)N(Cc2cccc(Cl)c2)C(=O)c2ccccc2S3=O)CC1` (stereo unspecified)?
TRPML1 blocker: 35.3; ClpP mod: 0.1%; gsp antagonist: 1.5%; gsp agonist: -6.5%; TRPML1 ag: 0.6

Results for O=C(CN1CCN(c2ccccn2)CC1)NC(=O)NC1CCCCC1 ?
TRPML1 blocker: 15.1; ClpP mod: -1.6%; gsp antagonist: 1.3%; gsp agonist: -0.1%; Menin-MLL FL inh: -2.8; TRPML1 ag: 0.0

What do the screens show for `O=c1n(Cc2ccccc2)nc2n1-c1ccccc1OC2`?
TRPML1 blocker: 8.6; ClpP mod: -5.3%; TRPML1 ag: 1.8

How did Cc1cccc(-c2nc(SCC(=O)N3CCc4ccccc43)c3c(=O)n(C)c(=O)n(C)c3n2)c1 do in these assays?
TRPML1 blocker: 13.4; ClpP mod: -0.6%; TRPML1 ag: -0.6

How did CNC(=S)Nc1ccc2nc(C)c(C)nc2c1 do in these assays?
TRPML1 blocker: 16.1; ClpP mod: -2.3%; gsp antagonist: 6.9%; gsp agonist: 9.3%; Menin-MLL FL inh: -0.8; TRPML1 ag: -1.0

How did CCN(CC(=O)Nc1ccc(OC)c(OC)c1)S(=O)(=O)c1ccc(C)cc1 do in these assays?
TRPML1 blocker: -8.2; ClpP mod: -2.6%; gsp antagonist: -8.5%; gsp agonist: -0.2%; Menin-MLL FL inh: 0.9; TRPML1 ag: 0.4

How did N#CC1(NC(=O)COc2cccnc2[N+](=O)[O-])CCCCC1 do in these assays?
TRPML1 blocker: -7.8; ClpP mod: -6.4%; gsp antagonist: -2.8%; gsp agonist: 14.5%; TRPML1 ag: 0.3

How did Cn1cc2ccc(N)cc2n1 do in these assays?
TRPML1 blocker: 13.3; ClpP mod: -0.2%; gsp antagonist: -5.4%; gsp agonist: 4.1%[15.4 µM]; Menin-MLL FL inh: 0.3; TRPML1 ag: -0.9

What do the screens show for `COc1ccc(N2C(=O)c3ccccc3NC2(C)C)cc1`?
TRPML1 blocker: -4.6; gsp antagonist: 7.7%; gsp agonist: inconclusive; Menin-MLL FL inh: -5.3; TRPML1 ag: 0.0

What do the screens show for `O=C(c1ccccc1)c1cnc(-c2ccccc2)s1`?
TRPML1 blocker: 3.6; gsp antagonist: 2.7%; gsp agonist: -4.6%[15.4 µM]; Menin-MLL FL inh: -1.2; TRPML1 ag: 0.5

How did CCn1c(=S)[nH]c2c(=O)n(C)c(=O)n(C)c21 do in these assays?
TRPML1 blocker: 0.6; gsp antagonist: -7.1%; gsp agonist: inconclusive; TRPML1 ag: 1.7

What do the screens show for `C=CCSc1nnc(NC(=O)CSCc2c(C)noc2C)s1`?
TRPML1 blocker: 7.7; ClpP mod: 1.4%; gsp antagonist: -33.0%; gsp agonist: -17.4%[15.4 µM]; TRPML1 ag: 1.1

How did C[N+](C)(C)CCCN1C(=O)CCCC1=O do in these assays?
TRPML1 blocker: 8.8; ClpP mod: 1.9%; gsp antagonist: 5.4%; gsp agonist: 2.7%; Menin-MLL FL inh: 8.2; TRPML1 ag: 0.2

What do the screens show for `CN1CCN(Cc2c(O)ccc3c(=O)c(Oc4ccccc4Cl)c(C(F)(F)F)oc23)CC1`?
TRPML1 blocker: -25.6; ClpP mod: 0.0%; gsp antagonist: -8.7%; gsp agonist: -42.3%[inhibitor]; Menin-MLL FL inh: 0.3; TRPML1 ag: 0.7

Results for CCCCNC(=O)CSc1nnc(C)c2c(C)n(-c3ccccc3)nc12 ?
TRPML1 blocker: 20.4; ClpP mod: -2.6%; TRPML1 ag: 1.4

Results for COc1ccc(C)cc1S(=O)(=O)N(C)CC(=O)NCc1ccncc1 ?
TRPML1 blocker: 4.0; gsp antagonist: 5.4%; gsp agonist: 12.3%[15.4 µM]; Menin-MLL FL inh: -4.2; TRPML1 ag: 0.5

Results for CC(=O)Nc1ccc(NC(=O)COC(=O)C2c3ccccc3Oc3ccccc32)cc1 ?
TRPML1 blocker: -10.1; gsp antagonist: 2.6%; gsp agonist: -3.9%[15.4 µM]; Menin-MLL FL inh: 1.2; TRPML1 ag: 1.5

What do the screens show for `Cc1cn(-c2cccnc2)c(C)c1CNC[C@H]1O[C@@H](n2cnc3c(N)ncnc32)[C@H](O)[C@@H]1O`?
TRPML1 blocker: -3.9; ClpP mod: -5.4%; gsp antagonist: 10.6%; TRPML1 ag: -0.4

What do the screens show for `COc1ccc(Br)cc1/C=N/NS(=O)(=O)c1ccccc1`?
TRPML1 blocker: -4.7; ClpP mod: 0.1%; gsp agonist: -1.7%; TRPML1 ag: -0.8

What do the screens show for `CC(=O)Nc1ccc(NC(=O)CSc2ccc(-c3cccs3)nn2)cc1`?
TRPML1 blocker: 47.3; gsp antagonist: -12.6%; gsp agonist: 32.6%; Menin-MLL FL inh: -5.1; TRPML1 ag: 0.1

What do the screens show for `C=C(C)C1CC=C(C)/C(=N/NC(=O)CNc2ccc(OCC)cc2)C1` (stereo unspecified)?
TRPML1 blocker: -7.0; ClpP mod: 1.8%; gsp antagonist: 3.3%; gsp agonist: -35.3%[inhibitor]; Menin-MLL FL inh: -0.9; TRPML1 ag: -0.3

What do the screens show for `CCc1sc(C(=O)Nc2cc(Cl)ccc2N2CCCCC2)cc1C`?
TRPML1 blocker: -3.0; ClpP mod: 22.4µM*; gsp antagonist: 9.1%; gsp agonist: 4.8%; Menin-MLL FL inh: 3.3; TRPML1 ag: -0.4
